# Screening results from PubChem.
# NPYLR7 ag = agonists of mosquito NPYLR7 receptor, primary screen, cell-based, Aedes aegypti, calcium fluorescence, mosquito biting behavior. activation, % at 10 µM. Aedes aegypti neuropeptide Y-like receptor 7 (NPYLR7). HEK293T NPYLR7/Galpha15, GCaMP6s calcium fluorescence. actives 0.15% (n = 270,000). AID 1259423, 2018; in the data active = activation above about 40%;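 note: 0% = vehicle and 100% = reference agonist at the receptor; some compounds past the cut are filed as inactive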
# NPYLR7 ag max-min = recorded beside NPYLR7 ag, whose call it bears; activation, %; measured here: Max-Min RFU normalised activation; some inactives read as strong as hits;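 span of the calcium signal over five minutes; 0% = vehicle and 100% = native peptide agonist; compound fluorescence can raise it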
# * marks the source's active call; other numbers are inactive results; & = joins results of further samples.
1. C=CCn1c(CN2CC[C@H](O)C[C@@H]2C(=O)O)nc2ccccc21
2. COc1ccccc1Nc1nc(N)nc(CN2CC(C)CC(C)C2)n1 (stereo not drawn)
3. COc1ccc(-c2cn3nc(SCC(=O)Nc4ccc(NC(C)=O)cc4)ccc3n2)cc1
4. Cc1ccccc1NC(=O)CN1C(=O)NC(C)(CCC(C)C)C1=O (stereo not drawn)
5. O=C(NC(c1ccc(F)cc1)c1cnccn1)C1CCN(Cc2ccccc2F)CC1 (stereo not drawn)
6. COCCCN(CC(=O)N(CCc1ccc(OC)c(OC)c1)Cc1sccc1C)C(=O)/C=C/c1ccc([N+](=O)[O-])cc1
7. O=C(Nc1cccc(F)c1)N1CCN(C(C(=O)N2CCCC2)C2CCCC2)CC1 (stereo not drawn)
8. Cc1cc(-c2nnc(NC(=O)c3ccc4ncsc4c3)o2)nn1C
screen / no.	1	2	3	4	5	6	7	8
NPYLR7 ag	3	0	3	1	9	-11	-8	-9
NPYLR7 ag max-min	-3	45	0	3	-2	-16	-2	-16

9. CC(O)c1nc2ccc(-c3cccc4cccnc34)cc2[nH]1 (stereo not drawn)
10. COc1c2c(cc3c1C(CC(O)C(C)C)N(C)CC3)OCO2 (stereo not drawn)
11. COc1ccc(CCN(C)C2CCCN(C(=O)CCCc3cccs3)C2)cc1OC (stereo not drawn)
12. CCN1Cc2ccccc2CC1C(=O)NCc1nc2ccc(OC)cc2[nH]1 (stereo not drawn)
13. CCc1nn(-c2ccc(F)cc2)c(Oc2ccccc2)c1CN(CC(O)COCc1ccccc1)C(C)C (stereo not drawn)
14. N#Cc1cccc(C(=O)Nc2ccc(F)c(NC(=O)C3CC3)c2)c1
15. O=C(N1CCOC(C(F)(F)F)C1)C1(S(=O)(=O)c2ccccc2)CC1 (stereo not drawn)
16. Cc1nc(-c2ccc(CN3CCNCC3)cc2)[nH]c(=O)c1C
screen / no.	9	10	11	12	13	14	15	16
NPYLR7 ag	4	1	2	4	13	2	-1	0
NPYLR7 ag max-min	2	-1	1	0	14	1	-6	-2

17. CCc1ccc(CN(Cc2ccco2)C(C)C(C)C)nc1 (stereo not drawn)
18. Cc1ccc2c(c1)N(C(=O)Cn1cccc(S(=O)(=O)N3CCCC3)c1=O)CCO2
19. O=C(c1cn(CCN2CCOCC2)nn1)N1CCCCC1c1cccc(F)c1 (stereo not drawn)
20. COC(CNC(=O)c1cnc2ccccc2c1)c1cccs1 (stereo not drawn)
21. CCc1ccccc1NC(=O)CSc1ncc(S(=O)(=O)c2ccccc2)c(=O)[nH]1
22. CN(C)C(C(=O)NCC1(O)CCCCC1)c1cccc(F)c1 (stereo not drawn)
23. NC(=O)c1csc(N2CC[C@@H](c3ccc4c(c3)OCO4)[C@H](O)C2)n1
24. CCC(C(=O)N1CCC(c2nc(-c3ccc(F)c(F)c3)no2)CC1)c1ccccc1 (stereo not drawn)
screen / no.	17	18	19	20	21	22	23	24
NPYLR7 ag	7	-10	5	-4	-6	9	0	7
NPYLR7 ag max-min	5	-8	2	-5	-14	5	-3	-1

25. COCCNC(=O)c1ccc(CSc2nc(C)c(C)c(N(C)Cc3ccccc3)n2)cc1
26. Cc1ccccc1-n1nc2c(c1NC(=O)C13CC4CC(CC(C4)C1)C3)CS(=O)C2 (stereo not drawn)
27. O=c1c(NCCc2ccccc2)nccn1-c1ccccc1
28. COc1cccc(Cn2cccc2CN(C(=O)CN(CC(C)C)C(=O)c2cccc(F)c2)C(C)(C)C)c1
29. O=C(CSc1nc2ccccc2n1Cc1ccccc1)N/N=C\c1ccc(F)cc1
30. CCOC(=O)CN(C)C(=O)C1CCC(=O)N(CCc2ccc(OC)cc2)C1 (stereo not drawn)
31. CCCc1nc(C)sc1C(=O)NCCc1c(-c2ccccc2)n(Cc2cc(C)ccc2C)c2ccccc12
32. CN(Cc1ccccc1)c1ncccc1CNC(=O)c1ccnn1C
screen / no.	25	26	27	28	29	30	31	32
NPYLR7 ag	6	-2	-1	-7	5	17	-5	2
NPYLR7 ag max-min	10	-2	-3	-4	8	7	-13	0

33. CCCCn1nc(C(=O)Nc2ccccc2F)c2ccccc2c1=O
34. CC#CC(=O)N1CCC(CCC(=O)NCCOC)CC1
35. CC1CN2C(=O)CN(C(=O)Nc3ccccc3OC(F)F)CC2c2ccccc21 (stereo not drawn)
36. COc1cc(CN2CCn3nc(C(=O)NCc4ccc(F)cc4)cc3C2=O)cc(OC)c1
37. CCCCS(=O)(=O)NC(=O)C1(C)CCN1C(=O)CCc1ccccc1 (stereo not drawn)
38. O=C(N=Nc1c(O)[nH]c2ccc(Br)cc12)c1ccc(Br)cc1
39. CCN(Cc1cnc(-c2cccc3ccccc23)nc1)C1CCS(=O)(=O)C1 (stereo not drawn)
40. O=C(Oc1coc(CSc2ncccn2)cc1=O)c1ccc(F)cc1
screen / no.	33	34	35	36	37	38	39	40
NPYLR7 ag	-6	1	21	-3	0	-3	17	-14
NPYLR7 ag max-min	-9	-3	5	-2	-1	-5	5	-9

41. O=C(NNC(=O)N1CCOC(c2cccc(Br)c2)C1)c1ccccc1 (stereo not drawn)
42. O=C1N(Cc2cccc(F)c2)C(c2ccccc2)=NOC12CCC2
43. NS(=O)(=O)CCCC(=O)N1CCOC(c2ccc(Cl)c(Cl)c2)C1 (stereo not drawn)
44. CCc1noc(CSc2nc3ccccc3c(=O)n2CCOC)n1
45. O=C(c1ccc(Cl)cc1)N(Cc1c(-c2ccccc2)noc1N1CCSCC1)C1CC1
46. COc1ccc(S(=O)(=O)NC(=O)/C=C/c2csc(C)n2)c(OC)c1
47. COc1cc(Br)c(CC(=O)N2CCC(=O)CC2)cc1OC
48. O=C(NCc1cc(-c2cc3ccccc3o2)on1)C1CC1
screen / no.	41	42	43	44	45	46	47	48
NPYLR7 ag	9	-3	5	-2	2	4	3	0
NPYLR7 ag max-min	8	-6	3	-4	7	2	2	-1

49. CCN(CC)C(=O)Oc1ccc2c(ccn2Cc2cc3c(cc2Cl)OCO3)c1-c1cc(C)cc(C)c1
50. Cc1ccccc1NC1CCN(S(=O)(=O)c2c(C)nn(C)c2C)CC1
51. NC(=O)c1cn(Cc2cccc(C(F)(F)F)c2)c(C2CC2)n1
52. Cc1cccc(NC(=O)CSc2nc3c(-c4ccccc4)c[nH]c3c(=O)n2C)c1
53. Oc1ccc(N2CCN(Cn3nc(-c4ccc5c(c4)OCO5)oc3=S)CC2)cc1
54. COc1ccc(Cl)c2sc(N(CCCN(C)C)C(=O)c3cc(C)no3)nc12
55. CC1(C(=O)NS(=O)(=O)c2cccc(C#N)c2)CCN1C(=O)Cc1ccccc1Cl (stereo not drawn)
56. CCC(C)C(=O)Nc1nc(-c2ccc(OC)c(F)c2)cs1 (stereo not drawn)
screen / no.	49	50	51	52	53	54	55	56
NPYLR7 ag	9	-1	-4	2	2&-5	1	8	2
NPYLR7 ag max-min	4	0	-2	0	4&-6	5	3	1

57. Cn1cc(C(CC(=O)NCCc2ccccc2)c2cccc(C(F)(F)F)c2)c2ccccc21 (stereo not drawn)
58. COC(=O)c1cc(OC)cc2c1OC(CNC(=O)C(C)(C)C)C2 (stereo not drawn)
59. CN(c1ccc(S(=O)(=O)N2CCCCC2)cn1)C1CCCCC1
60. O=S(=O)(NCC(F)(F)F)c1cccc(Br)c1
61. CS(=O)(=O)N1CCN(C(=O)c2ccc(Oc3ccc(C(F)(F)F)cn3)cc2)CC1
62. CC(Nc1ccc2c(c1)OCCCO2)c1nc(C(C)(C)C)no1 (stereo not drawn)
63. CCSc1nnc(SC(C)c2ccncc2)s1 (stereo not drawn)
64. COc1ccc(CC(=O)N2CC(=O)Nc3ccccc32)c(OC)c1OC
screen / no.	57	58	59	60	61	62	63	64
NPYLR7 ag	5	1	-4	2	10	-2	8	-2
NPYLR7 ag max-min	14	2	-3	2	5	-3	7	-2

65. COc1cc(Cl)ccc1S(=O)(=O)N1CCC(Cc2ccc(-n3cccc3)cc2)CC1
66. CC1CCCN(C(=O)/C=C/c2cccc3cccnc23)CC1 (stereo not drawn)
67. CCOC(=O)CCC(=O)N1CCN(C(=O)c2cc(-c3ccc(Cl)cc3)n(-c3ccccc3F)c2C)CC1
68. Cc1ccccc1NC(=O)NCCNc1nc(-c2ccccc2)nc2ccccc12
69. O=C(CN1CCN(C(=O)c2cc3cc(Cl)ccc3o2)CC1)Nc1ccc(F)cc1
70. O=C(NC1CCN(C(=O)C2CCCCC2)CC1)C(OCC(F)(F)F)c1ccccc1 (stereo not drawn)
71. Cc1ccccc1Nc1nnc(SCC(=O)NC2(C#N)CCCCC2)s1
72. CC1(C(=O)NS(=O)(=O)c2cccc(F)c2)CCN1C(=O)c1ccco1 (stereo not drawn)
screen / no.	65	66	67	68	69	70	71	72
NPYLR7 ag	5	7	-10	6	8	12	4	-4
NPYLR7 ag max-min	2	5	-15	17	3	4	6	-10

73. Cc1cccn2c(=O)c(C=NNC(N)=S)c(N3CCCC3)nc12
74. O=C(c1cnn2cc(CCO)cnc12)N1CCC2(CCOCC2)CC1
75. CC(C)c1ccc(C(=O)N(C)Cc2nc3ccsc3c(=O)[nH]2)cc1
76. CO[C@H]1C[C@@H]2C[C@H](c3ccccn3)OC[C@]2(O)[C@@H]1N1CCN(c2ncccn2)CC1
77. O=C(CCc1nnc(-c2ccccc2)o1)NNC(=O)c1ccc(O)cc1
78. CCn1c(CN2CCN(Cc3cc(OC)cc(OC)c3)C(CCO)C2)nc2ccccc21 (stereo not drawn)
79. COC(=O)[C@@H]1C[C@H](NS(=O)(=O)c2cc(OC)ccc2OC)CN1C
80. O=C(CSc1ncnc2c1nnn2Cc1ccc(F)cc1)NCc1ccccc1Cl
screen / no.	73	74	75	76	77	78	79	80
NPYLR7 ag	15	11	0	-3	3	-7	3	-1
NPYLR7 ag max-min	9	10	1	-4	1	-7	1	22

81. CC(C)CNC(=O)C(=O)NCCCc1ccc(N(C)C)cc1
82. O=c1[nH]c(=O)n(-c2ccccc2)[nH]1
83. O=c1c2c3c(sc2[nH]c(=S)n1Cc1ccco1)CCC3
84. COCCc1noc(C2CCCN(Cc3[nH]nc4cc(OC)ccc34)C2)n1 (stereo not drawn)
85. COc1ccc(NC(=O)c2nnn(Cc3nc(-c4ccccc4OC)oc3C)c2C)cc1
86. Cc1cn2c3c(=O)n(Cc4ccc(F)cc4)c(=O)n(C)c3nc2n1CC1CCCO1 (stereo not drawn)
87. Cc1oc(C)c(-c2ccoc2)c1C(=O)Nc1ccc2c(c1)CCC2
88. CCc1ccc(-c2nc(SCC(=O)N(C)C3CCS(=O)(=O)C3)n[nH]2)cc1 (stereo not drawn)
screen / no.	81	82	83	84	85	86	87	88
NPYLR7 ag	-8	-2	0	1	8	0	-3	1
NPYLR7 ag max-min	-10	-8	4	0	5	1	-10	-1

# Entries above containing an NH in an aromatic ring:
9. CC(O)c1nc2ccc(-c3cccc4cccnc34)cc2[nH]1 (stereo not drawn)
12. CCN1Cc2ccccc2CC1C(=O)NCc1nc2ccc(OC)cc2[nH]1 (stereo not drawn)
16. Cc1nc(-c2ccc(CN3CCNCC3)cc2)[nH]c(=O)c1C
21. CCc1ccccc1NC(=O)CSc1ncc(S(=O)(=O)c2ccccc2)c(=O)[nH]1
38. O=C(N=Nc1c(O)[nH]c2ccc(Br)cc12)c1ccc(Br)cc1
52. Cc1cccc(NC(=O)CSc2nc3c(-c4ccccc4)c[nH]c3c(=O)n2C)c1
75. CC(C)c1ccc(C(=O)N(C)Cc2nc3ccsc3c(=O)[nH]2)cc1
82. O=c1[nH]c(=O)n(-c2ccccc2)[nH]1
83. O=c1c2c3c(sc2[nH]c(=S)n1Cc1ccco1)CCC3
84. COCCc1noc(C2CCCN(Cc3[nH]nc4cc(OC)ccc34)C2)n1 (stereo not drawn)
screen / no.	9	12	16	21	38	52	75	82	83	84
NPYLR7 ag	4	4	0	-6	-3	2	0	-2	0	1
NPYLR7 ag max-min	2	0	-2	-14	-5	0	1	-8	4	0

88. CCc1ccc(-c2nc(SCC(=O)N(C)C3CCS(=O)(=O)C3)n[nH]2)cc1 (stereo not drawn)
screen / no.	88
NPYLR7 ag	1
NPYLR7 ag max-min	-1

# This is a subset. The share of hits here may be higher or lower than overall.
